Assay outcomes deposited in PubChem BioAssay by several laboratories.
Mtb H37Rv – M. tuberculosis H37Rv growth inhibitors, H37Rv strain (AID 1626); 220,000 tested, 0.95% active; M. tuberculosis H37Rv growth inhibition; higher % means a stronger effect; inhibition, % at 10 µM, or IC50 in µM where a hit was titrated;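 active = confirmed in a dose series; inconclusive = inhibition above 80% but not taken into the dose series; inactive = below 80% or under 30% at every dose of the series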;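 note: bacteria incubated seven days before Alamar blue readout; 0% = bacteria only wells and 100% = bacteria with antibiotic wells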
Mtb betalactam – beta-lactam sensitization of Mtb H37Rv; M. tuberculosis H37Rv growth with meropenem, percent inhibition; hits of this screen are not shown here; inhibition, % at 25 µM; 330,000 tested, 0.27% active; AID 434955;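 active = about 74% or more and at least 40 points above the plate without the antibiotic, then above 30% in a dose series; inconclusive = first-round hits that could not be retested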;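 note: growth measured after seven days incubation then overnight dye step; 0% = bacteria only wells and 100% = bacteria with antibiotic; twin plates without the antibiotic show which effects depend on it; some results filed as inactive read as strong as hits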
YopH inh – blocks Yersinia enterocolitica YopH tyrosine phosphatase | fluorescence Ex485/Em525 | inhibition, %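 (about 10 µM by stock and volumes)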 | 140,000 tested, 0.16% active | AID 898;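 active = inhibition of 50% or more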;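 note: controls were vehicle for no effect and minimum signal wells for full effect; inactives centre near -20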
RecA intein inh – inhibitors of M. tuberculosis RecA intein splicing; P9WHJ3; inhibition, %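 (about 9 µM by stock and volumes)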; 290,000 tested, 0.75% active; cell-free RecA intein splicing, fluorescence; in the data active = inhibition above about 30%; inconclusive = no clear call, values can overlap the other calls;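 note: 0% = vehicle wells and 100% = reference inhibitor control wells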
Target sequence (P9WHJ3 whole entry, looked up): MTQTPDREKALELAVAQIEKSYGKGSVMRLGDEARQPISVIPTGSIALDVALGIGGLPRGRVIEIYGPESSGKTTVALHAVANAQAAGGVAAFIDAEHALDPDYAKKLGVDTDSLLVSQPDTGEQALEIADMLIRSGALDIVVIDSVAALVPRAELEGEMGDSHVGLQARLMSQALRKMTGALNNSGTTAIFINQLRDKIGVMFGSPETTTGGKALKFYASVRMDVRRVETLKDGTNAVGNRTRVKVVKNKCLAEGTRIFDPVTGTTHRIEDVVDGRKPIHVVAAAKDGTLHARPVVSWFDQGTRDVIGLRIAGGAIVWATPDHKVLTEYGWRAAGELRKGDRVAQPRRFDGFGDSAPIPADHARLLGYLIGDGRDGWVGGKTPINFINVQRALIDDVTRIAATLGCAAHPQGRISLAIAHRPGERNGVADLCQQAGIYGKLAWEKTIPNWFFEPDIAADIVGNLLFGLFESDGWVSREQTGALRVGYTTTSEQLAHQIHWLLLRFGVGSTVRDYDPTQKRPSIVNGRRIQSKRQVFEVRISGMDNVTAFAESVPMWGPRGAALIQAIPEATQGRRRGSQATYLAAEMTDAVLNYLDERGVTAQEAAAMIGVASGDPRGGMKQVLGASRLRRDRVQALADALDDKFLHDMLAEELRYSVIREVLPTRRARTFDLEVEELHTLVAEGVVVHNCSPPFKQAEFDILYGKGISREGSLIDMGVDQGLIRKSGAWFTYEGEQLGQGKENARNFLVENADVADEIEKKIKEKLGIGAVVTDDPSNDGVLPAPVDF
Arbovirus inh – arbovirus infection inhibition; arbovirus infection cell-based antiviral screen; inhibition, % at 10 µM; 200,000 tested, 0.37% active;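 active = inhibition from about 30%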;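 note: bluetongue infection of BSR cells; cell survival read as ATP light after 72 h; 0% = infected wells without compound and 100% = uninfected wells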
* hit, by the source's call. This is a subset; rates above refer to the full screens.

What do the screens show for `C=CCn1c(=NC(=O)c2ccco2)sc2cc(C(=O)OC)ccc21`?
Mtb H37Rv: -3%; Mtb betalactam: 5; YopH inh: 3; RecA intein inh: -0.5; Arbovirus inh: 5

Results for O=C(O)C1CCN(S(=O)(=O)c2cccc3cccnc23)CC1 ?
Mtb betalactam: 6; RecA intein inh: -0.2

How did COc1cc(C2=NOC(C(=O)NCc3ccc(F)cc3)C2)cc(OC)c1OC (centres undefined) do in these assays?
Mtb betalactam: inconclusive; YopH inh: -11; RecA intein inh: 1.5; Arbovirus inh: -10

What do the screens show for `O=C(Cc1cccs1)N=Nc1c(O)[nH]c2ccc(Br)cc12`?
Mtb H37Rv: -11%; Mtb betalactam: 2; RecA intein inh: 0.8

What do the screens show for `Cc1nc(N2CCC3(CC2)OCCO3)c2nnn(Cc3ccccc3F)c2n1`?
Mtb H37Rv: -3%; Mtb betalactam: -2; YopH inh: -4; RecA intein inh: 0.5; Arbovirus inh: -2

What do the screens show for `COc1ccc(NC(=O)C(=O)c2cn(CC(=O)N3CCCC3)c3ccccc23)cc1`?
Mtb betalactam: -1; RecA intein inh: -4.0

What do the screens show for `Cc1ccc2oc(=O)c3cc(C(=O)NCCCN4CC(C)CC(C)C4)sc3c2c1` (centres undefined)?
Mtb betalactam: -6; RecA intein inh: 1.3

Results for COCCn1cnnc1SCC(=O)Nc1cc(OC)c([N+](=O)[O-])cc1C ?
Mtb H37Rv: -5%; Mtb betalactam: -1; RecA intein inh: 2.9; Arbovirus inh: 12

What do the screens show for `O=[N+]([O-])c1ccc(N=Cc2ccc(Br)c([N+](=O)[O-])c2)cc1`?
Mtb H37Rv: 9%; Mtb betalactam: 3; YopH inh: -28; RecA intein inh: 2.1; Arbovirus inh: -21

Results for CC(C)CCC(C)N=Cc1c(O)n(Cc2ccccc2)c(=O)c2ccccc12 (centres undefined) ?
Mtb H37Rv: 12%; Mtb betalactam: -7; YopH inh: -9; RecA intein inh: 6.4; Arbovirus inh: 13

By substructure, those above containing a nitro group on carbon
Results for COCCn1cnnc1SCC(=O)Nc1cc(OC)c([N+](=O)[O-])cc1C ?
Mtb H37Rv: -5%; Mtb betalactam: -1; RecA intein inh: 2.9; Arbovirus inh: 12

What do the screens show for `O=[N+]([O-])c1ccc(N=Cc2ccc(Br)c([N+](=O)[O-])c2)cc1`?
Mtb H37Rv: 9%; Mtb betalactam: 3; YopH inh: -28; RecA intein inh: 2.1; Arbovirus inh: -21

A draw from above in order of count of non-hydrogen atoms, high to low:
What do the screens show for `Cc1ccc2oc(=O)c3cc(C(=O)NCCCN4CC(C)CC(C)C4)sc3c2c1` (centres undefined)?
Mtb betalactam: -6; RecA intein inh: 1.3

Results for CC(C)CCC(C)N=Cc1c(O)n(Cc2ccccc2)c(=O)c2ccccc12 (centres undefined) ?
Mtb H37Rv: 12%; Mtb betalactam: -7; YopH inh: -9; RecA intein inh: 6.4; Arbovirus inh: 13

What do the screens show for `O=[N+]([O-])c1ccc(N=Cc2ccc(Br)c([N+](=O)[O-])c2)cc1`?
Mtb H37Rv: 9%; Mtb betalactam: 3; YopH inh: -28; RecA intein inh: 2.1; Arbovirus inh: -21

Next compounds:
How did CCOC(=O)CSc1n[nH]c(NC(=O)c2ccccc2)n1 do in these assays?
Mtb H37Rv: -7%; Mtb betalactam: -1; YopH inh: 1; RecA intein inh: 16; Arbovirus inh: 5

Results for CS(=O)(=O)c1ccc(C(=O)NCC2(N3CCCCC3)CCCCC2)cc1 ?
Mtb H37Rv: 2%; Mtb betalactam: 3; YopH inh: -2; RecA intein inh: -0.2; Arbovirus inh: 4

Results for CSc1ccc(-c2nc(CSCC(=O)NCCCN3CCOCC3)c(C)o2)cc1 ?
Mtb H37Rv: -9%; Mtb betalactam: -11; YopH inh: -30; RecA intein inh: 2.0; Arbovirus inh: 1

What do the screens show for `FC(F)(F)c1ccc(-c2csc(-c3ccno3)n2)cc1`?
Mtb H37Rv: -3%; Mtb betalactam: 3; RecA intein inh: 2.3

What do the screens show for `Cc1ccc(NC(=O)c2sc3nc(C)nc(N4CCN(c5ccccn5)CC4)c3c2C)c(C)c1`?
Mtb H37Rv: 11µM*; Mtb betalactam: 87; RecA intein inh: 8.4; Arbovirus inh: 9

Results for O=C(CSc1ccc2c(c1)OCCO2)Nc1cccnc1Cl ?
Mtb H37Rv: -8%; Mtb betalactam: 1; RecA intein inh: 0.2; Arbovirus inh: 5

What do the screens show for `O=C(c1ccco1)N1CCN(C23CC4CC(CC(C4)C2)C3)CC1`?
Mtb betalactam: -13; RecA intein inh: -1.6

How did CCOC(=O)N1CCN(CC(O)COc2c(C)cccc2C)CC1 (centres undefined) do in these assays?
Mtb H37Rv: 2%; Mtb betalactam: -1; YopH inh: -1; RecA intein inh: -2.8; Arbovirus inh: 11

Results for Cc1cc(N2C(=O)C3CC=CC(C)C3C2=O)no1 (centres undefined) ?
Mtb H37Rv: -4%; Mtb betalactam: 3; YopH inh: -20; RecA intein inh: -0.3; Arbovirus inh: 5

What do the screens show for `O=C(C1CCCN(c2ncnc3c2nc2n3CCCCC2)C1)N1CCN(c2cccc(Cl)c2)CC1` (centres undefined)?
Mtb betalactam: 96; RecA intein inh: 9.5

Results for CC1Oc2ccccc2N(CC(=O)NCc2ccccc2)C1=O (centres undefined) ?
Mtb H37Rv: -10%; Mtb betalactam: -2; RecA intein inh: -2.4; Arbovirus inh: -2

Results for CCOC(=O)c1c(C)[nH]c(C(=O)N2CCN(CC)CC2)c1C ?
Mtb betalactam: 11; RecA intein inh: 3.6

What do the screens show for `COC(=O)c1ccc(CSCc2ccc(C#N)cc2)cc1`?
Mtb betalactam: 5; RecA intein inh: 4.9

What do the screens show for `COC(=O)NC(=S)Nc1ccc(Oc2ccc(Cl)cc2Cl)c(Cl)c1`?
Mtb H37Rv: 7%; Mtb betalactam: -4; YopH inh: -81; RecA intein inh: -3.0; Arbovirus inh: -24

How did Cc1cccc(C2Nc3ccccc3C(=O)N2NC(=O)c2ccc([N+](=O)[O-])cc2)n1 (centres undefined) do in these assays?
Mtb H37Rv: -5%; Mtb betalactam: 4; YopH inh: -32; RecA intein inh: 3.0; Arbovirus inh: 5

How did Cc1cc(=O)n2nc(N3CCC(C(=O)NC(C)c4ccccc4)CC3)sc2n1 (centres undefined) do in these assays?
Mtb H37Rv: -2%; Mtb betalactam: inconclusive; YopH inh: -19; RecA intein inh: -0.8; Arbovirus inh: 0

What do the screens show for `COc1cccc(/C=N/n2c(N)nc3ccccc32)c1OC`?
Mtb H37Rv: 18%; Mtb betalactam: 9; YopH inh: 5; RecA intein inh: 3.6; Arbovirus inh: 2

Results for O=C(CN1C(=O)COc2ccccc21)N(Cc1cccnc1)Cc1ccccc1F ?
Mtb H37Rv: -7%; Mtb betalactam: -13; YopH inh: -4; RecA intein inh: 1.8; Arbovirus inh: 9

Results for CC1CCCC(NC2CCCCNC2=O)C1 (centres undefined) ?
Mtb H37Rv: -3%; Mtb betalactam: -4; YopH inh: -38; RecA intein inh: 0.9; Arbovirus inh: 2

What do the screens show for `COC(=O)c1c(C)oc(C)c1S(=O)(=O)Nc1ccc(C(C)C)cc1`?
Mtb H37Rv: 6%; Mtb betalactam: -3; RecA intein inh: 4.3

Results for O=C(Nc1nc2ccccc2[nH]1)c1cccc(S(=O)(=O)N2CCOCC2)c1 ?
Mtb H37Rv: 18%; Mtb betalactam: 15; YopH inh: -26; RecA intein inh: 3.1; Arbovirus inh: -6

Results for CN(C)Cc1cc(CCNC(=O)c2ccc(Cl)cc2)ccc1O ?
Mtb H37Rv: -18%; Mtb betalactam: -3; YopH inh: -40; RecA intein inh: -1.5; Arbovirus inh: -17

Results for NC(=O)c1ccccc1OCC(=O)c1ccc(Cl)cc1 ?
Mtb H37Rv: 4%; Mtb betalactam: -2; RecA intein inh: -2.0; Arbovirus inh: 6

What do the screens show for `COc1ccc(OC)c(CN2CCN(C(=O)CCNC(=O)c3ccc(Br)cc3)CC2)c1`?
Mtb betalactam: -11; RecA intein inh: -2.0

How did CC1CC(=O)Nc2ccccc2N1C(=O)Nc1ccc(F)cc1F (centres undefined) do in these assays?
Mtb H37Rv: -12%; Mtb betalactam: -10; RecA intein inh: 2.2

Results for O=c1c2ccccc2[nH]c2ccccc12 ?
Mtb H37Rv: -2%; Mtb betalactam: 8; YopH inh: -22; Arbovirus inh: 9

How did CCCCOC(=O)CCN1C(=O)/C(=C2\SC(=S)N(CCC(=O)OCCCC)C2=O)SC1=S do in these assays?
Mtb H37Rv: inconclusive; Mtb betalactam: 99; YopH inh: -20; RecA intein inh: -0.5; Arbovirus inh: -10

Results for CC(C)NCC(O)COc1ccc(COCCOC(C)C)cc1 (centres undefined) ?
Mtb H37Rv: 9%; Mtb betalactam: -7; RecA intein inh: -1.8

What do the screens show for `CCS(=O)(=O)c1ccc2c(c1)N(S(C)(=O)=O)CC(C(=O)NCc1ccccc1OC)O2` (centres undefined)?
Mtb H37Rv: -13%; Mtb betalactam: 1; YopH inh: -46; Arbovirus inh: 3

Results for Cc1cc(SCCOc2ccccc2)nc(N)n1 ?
Mtb H37Rv: -6%; Mtb betalactam: -5; YopH inh: -24; RecA intein inh: 2.6; Arbovirus inh: 4

What do the screens show for `CNS(=O)(=O)/C=C/c1ccccc1`?
Mtb H37Rv: 2%; Mtb betalactam: 6; RecA intein inh: -3.0; Arbovirus inh: 9

What do the screens show for `Cc1sc2nc(C3CC3)nc(N3CCN(C(=O)c4ccc(Cl)cc4)CC3)c2c1C`?
Mtb betalactam: 24; RecA intein inh: 21

What do the screens show for `CCc1ccc(C(=O)COC(=O)C2CCN(c3ccc(C(F)(F)F)cn3)CC2)cc1`?
Mtb betalactam: 8; RecA intein inh: 0.0

What do the screens show for `O=C(NCc1ccc(F)cc1)NC(=O)c1ccc(Cl)cc1`?
Mtb betalactam: -1; RecA intein inh: -0.2

What do the screens show for `Cc1ccccc1C(=O)Nc1ccc(S(=O)(=O)N2CCCC2)cc1`?
Mtb betalactam: 10; RecA intein inh: 3.7

Results for COc1ccc([N+](=O)[O-])cc1C(=O)Nc1ccc(OCC(=O)N2CCOCC2)cc1 ?
Mtb H37Rv: 7%; Mtb betalactam: 7; YopH inh: -20; RecA intein inh: -3.5; Arbovirus inh: -4

What do the screens show for `CCc1ccc(NC(=S)N(Cc2cccnc2)Cc2ccco2)cc1`?
Mtb H37Rv: 3%; Mtb betalactam: 1; RecA intein inh: 2.0; Arbovirus inh: 9

Results for CCCCCCCC(=O)Oc1ccc(C(=O)Nc2cc(C)on2)cc1 ?
Mtb betalactam: 3; RecA intein inh: -0.9

What do the screens show for `CCC(C)[C@@H](C(=O)NCC1CCC(C(=O)O)CC1)n1nnc2ccccc2c1=O` (some centres undefined)?
Mtb betalactam: -9; YopH inh: -11; RecA intein inh: 0.6; Arbovirus inh: 6

What do the screens show for `O=C1CSC(c2ccc([N+](=O)[O-])cc2)N1c1ccccc1F` (centres undefined)?
Mtb betalactam: -6; RecA intein inh: 0.8

Results for O=S(=O)(c1ccc2c(c1)OCCO2)N1CCNCC1 ?
Mtb betalactam: 1; RecA intein inh: 0.1

Results for O=C(CSc1ccccn1)Nc1ccc2c(c1)OCO2 ?
Mtb H37Rv: -4%; Mtb betalactam: 52

Results for O=C1c2ccccc2C(=O)N1CCCn1c(=O)oc2ccccc21 ?
Mtb H37Rv: 11%; Mtb betalactam: 0; YopH inh: -29; RecA intein inh: -0.7; Arbovirus inh: -3

Results for COc1ccc(-c2csc(NC(=S)NC(=O)/C=C/c3ccco3)n2)cc1Br ?
Mtb H37Rv: -6%; Mtb betalactam: 15; RecA intein inh: 0.6

Results for COc1cccc(CNC(=O)CN2C(=O)COc3ccc(S(=O)(=O)N4CCCC4)cc32)c1 ?
Mtb betalactam: -6; RecA intein inh: 0.1

Results for COc1ccc2[nH]c(=O)c(CN(C(=O)c3cccnc3)c3ccc(C)c(C)c3)cc2c1 ?
Mtb H37Rv: -7%; Mtb betalactam: -5; RecA intein inh: -3.3

How did O=C(c1ccc(F)cc1Cl)N1CCN(CCc2ccccc2)CC1 do in these assays?
Mtb betalactam: -8; RecA intein inh: -2.0

Results for C=CCn1c(=N)n(CC(=O)c2ccccc2)c2ccccc21 ?
Mtb betalactam: 5; RecA intein inh: -1.1

How did Fc1ccc(-c2nc(-c3cccs3)[nH]c2-c2ccc(F)cc2)cc1 do in these assays?
Mtb H37Rv: 20%; Mtb betalactam: -5; YopH inh: -20; RecA intein inh: 3.7; Arbovirus inh: 0

Results for C=CCNc1nc(Cl)nc(NC2CCCCC2)n1 ?
Mtb betalactam: -1; RecA intein inh: 0.6

Results for N#C/C(=C(/O)COC(=O)c1cccnc1Cl)c1nc2ccccc2[nH]1 ?
Mtb H37Rv: -2%; Mtb betalactam: 73; RecA intein inh: -1.8; Arbovirus inh: -15

Results for O=C(Cn1cc(C(=O)C2CC2)c2ccccc21)NCc1ccccc1 ?
Mtb H37Rv: 4%; Mtb betalactam: 4; YopH inh: -13; RecA intein inh: -0.3; Arbovirus inh: -1

What do the screens show for `CC1CCCN(C(=O)COC(=O)CNS(=O)(=O)c2ccc3ccccc3c2)C1` (centres undefined)?
Mtb betalactam: -6; RecA intein inh: 2.6
